# High-throughput results: PubChem, several laboratories
# RN4220 kill = kills Staphylococcus aureus RN4220; S. aureus RN4220 growth, OD600, 16 h; inhibition, % (test concentration not listed); 330,000 compounds, 0.33% hits; AID 1259311;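 active = z-score of -3 or lower and OD600 up to 0.18 on both plates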;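 also: plate controls were untreated cells for no effect and reference antibiotic for full effect; stock transfer was 100 nL into about 80 µL; one replicate is shown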
# BJeLR viability = kills HRASV12-expressing BJeLR cells | BJeLR (HRASV12) viability, CellTiter-Glo ATP luminescence, 48 h; reference of the scale not given here | 300,000 compounds, 0.17% hits | inhibition, % (test concentration not listed);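 active = replicate mean above 50%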;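 also: 50 nL library stock added to about 25 µL; numbers are from one replicate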
# PrP UTR inh = suppresses PrP 5' UTR mRNA reporter expression | cell-based PrP 5' UTR mRNA reporter, plate reader | inhibition, % (concentration not given with the values) | 340,000 compounds, 0.35% hits | AID 488862;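 active = every replicate at 50% or more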;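 also: 0 = median of the neutral control wells; tested in H4 reporter cells; numbers are from one replicate; inactives centre near -14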
# ugtP null kill = compounds lethal to S. aureus RN4220 ugtP deletion mutant; OD600 growth, 16 h; some inactives read as strong as hits; growth inhibition, % (concentration not given with the values); 330,000 compounds, 0.54% hits; AID 1259309;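 active = z-score under -3 and OD600 up to 0.15 on both plates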;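 also: plate controls were untreated wells for no effect and antibiotic for full effect; wells of about 80 µL received 100 nL stock; the first replicate is given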
# Mtb hypoxia rep = Mtb hypoxia fluorescent reporter inhibition | M. tuberculosis hypoxia-regulated fluorescent reporter, fluorescence | 300,000 compounds, 0.1% hits | fluorescence inhibition, % (concentration not given with the values);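 active = 35 to 45% if threefold the growth effect, above 45% if 1.5-fold the growth effect; inactive = the rest, general growth blockers included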;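 also: wells of about 50 µL received 100 nL stock; 0% = vehicle wells and 100% = reference inhibitor wells; whole bacteria with a GFP reporter of the hypoxia response; strong numbers were not always called active; many hits fall short of the cut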
# Bead autofluor = compound fluorescence in toxin protease inhibitor counterscreen; 360,000 compounds, 3.1% hits; AID 624483; fluorescence intensity (concentration not given with the values); compound autofluorescence counterscreen, microsphere flow cytometry; active compounds read high;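 active = at least 3 SD above the mean of all compounds, about 16000 in these data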;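 also: 100 nL of 1 mM stock went into each well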
# Mtb hypoxia rep growth = also measured in Mtb hypoxia rep; calls as there; growth inhibition, %; measured here: M. tuberculosis growth (absorbance);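 0% = vehicle and 100% = reference antibiotic; read after six days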
# * marks the source's active call; other numbers are inactive results; . = not tested or not shown.
compound	RN4220 kill	BJeLR viability	PrP UTR inh	ugtP null kill	Mtb hypoxia rep	Mtb hypoxia rep growth	Bead autofluor
Cc1ccc(-n2nc(C)c3c(C)c(CCC(=O)NC(C)c4ccccc4)c(C)nc32)cc1 (centres undefined)	-4.3	7	-46	4	2	-7	5066
Cc1c(/C(O)=C2\C(=O)C(=O)N(CCN(C)C)C2c2ccco2)cnn1-c1ccccc1 (centres undefined)	1.3	-1	16	3	13	2	7277
COc1cc2c(cc1OC)C(c1cccs1)N(C(=O)C(C)C)CC2 (centres undefined)	4.1	-3	-22	-4	12	3	9548
CCOc1cc(-c2c(C#N)c(N)nc3c2CCc2ccccc2-3)ccc1O	-2.4	0	-32	-7	16	12	2163
Cc1cc(-n2nc(C)cc2C)n2ncc(-c3ccccc3)c2n1	2.3	-16	-15	2	10	11	3947
Cc1ccc(NC(=O)CCS(=O)(=O)c2ccc3nc(C)sc3c2)cc1	.	9	-22	.	.	.	6105
Cc1cccc(CSc2nc3c(cc2C#N)CCC3)c1	7.0	-24	-30	11	7	-1	5657
CCOC(=O)C1CCCN(C(=O)/C=C/c2cccc([N+](=O)[O-])c2)C1 (centres undefined)	1.1	7	-16	9	.	.	2885
COc1ccc(CCN(C)C(=O)C2CCN(Cc3cccc(OC)c3OC)CC2)cc1OC	0.6	-6	-27	6	12	6	4130
Cc1ccc(-c2nc3ccccc3[nH]2)cc1N	0.7	30	-15	8	8	5	9506
CCO[C@H]1OC(C(=O)O)=C[C@@H](c2ccccc2)[C@@H]1CCCO	.	0	-12	.	.	.	2853
O=C(Nc1ccc(F)cc1)C1CCCN(c2cnccn2)C1 (centres undefined)	5.2	-3	3	9	12	5	4533

# 5 consecutive compounds from above, quoted:
compound	RN4220 kill	BJeLR viability	PrP UTR inh	ugtP null kill	Mtb hypoxia rep	Mtb hypoxia rep growth	Bead autofluor
CCOC(=O)C1CCCN(C(=O)/C=C/c2cccc([N+](=O)[O-])c2)C1 (centres undefined)	1.1	7	-16	9	.	.	2885
COc1ccc(CCN(C)C(=O)C2CCN(Cc3cccc(OC)c3OC)CC2)cc1OC	0.6	-6	-27	6	12	6	4130
Cc1ccc(-c2nc3ccccc3[nH]2)cc1N	0.7	30	-15	8	8	5	9506
CCO[C@H]1OC(C(=O)O)=C[C@@H](c2ccccc2)[C@@H]1CCCO	.	0	-12	.	.	.	2853
O=C(Nc1ccc(F)cc1)C1CCCN(c2cnccn2)C1 (centres undefined)	5.2	-3	3	9	12	5	4533

# (list continues)
compound	RN4220 kill	BJeLR viability	PrP UTR inh	ugtP null kill	Mtb hypoxia rep	Mtb hypoxia rep growth	Bead autofluor
CCC(c1nnc(SCC(=O)Nc2ccc(C(=O)N(C)C)cc2)n1Cc1ccccc1)N(C)C (centres undefined)	3.7	8	-2	11	4	-2	4091
COc1ccc(-c2csc(C)n2)cc1OC	4.2	-6	-29	-5	-6	-5	23023*
Cc1ccccc1NC(=O)NCC1CCN(c2ccc(S(=O)(=O)N3CCOCC3)cc2)CC1	-0.6	-14	-12	3	11	0	6213
Cc1onc(-c2ccccc2)c1C(=O)NC(C)CCc1ccccc1 (centres undefined)	6.2	8	-21	7	0	7	5474
O=C(NCCCc1ccccc1)c1cncc(Br)c1	4.8	-1	-21	7	9	13	4250
Cc1ccc(S(=O)(=O)NCc2cccnc2)s1	3.7	3	-25	-9	.	.	2436
CCCc1nc(-c2cc3ccccc3[nH]c2=O)no1	5.0	-21	-31	2	10	3	4994
CCOc1ccc(N(C(=O)CNC(=O)c2ccco2)C(C(=O)NCC2CCCO2)c2ccccc2)cc1 (centres undefined)	1.4	-11	-17	0	6	0	3025
CN(C)c1ccc(C2C3C(=O)NC(=O)C3ON2c2ccc(Cl)cc2)cc1 (centres undefined)	-4.7	0	-14	0	.	.	6366
COc1ccc(Cc2nnc(NC(=O)CSc3ccccc3)s2)cc1OC	1.9	-8	-14	-4	-1	-3	2236
COCCNC(=O)c1ccc(CS(=O)(=O)c2ccc(C)cc2)o1	0.6	-1	-46	-3	-1	1	22139*
COC(=O)c1ccccc1C(=O)c1cccc2ccccc12	4.8	1	-22	7	5	-4	3866

# The listing continues:
compound	RN4220 kill	BJeLR viability	PrP UTR inh	ugtP null kill	Mtb hypoxia rep	Mtb hypoxia rep growth	Bead autofluor
C#CCOCCOCCOCCNc1nc(N2CCN(C(=O)C(Cc3ccc(O)cc3)n3cc(C(N)CC(C)C)nn3)CC2)nc(N2CCN(C(=O)C(Cc3cc4ccccc4[nH]3)n3cc(C(N)Cc4ccc(O)cc4)nn3)CC2)n1 (centres undefined)	-0.5	-10	.	4	.	.	.
CC12CCC(C(=O)N3CCCCC3)([C@H](Br)C1=O)C2(C)C (some centres undefined)	3.0	-1	5	4	5	9	4483
CN(CC(=O)N1CCN(c2ccc(F)cc2)CC1)S(=O)(=O)c1ccc2c(c1)c(=O)n(C)c(=O)n2C	1.9	-13	-33	10	4	6	4305
Cc1cccc(NC(=O)[C@H](Cc2c[nH]c3ccccc23)NC(=O)[C@@H]2Cc3ccccc3CN2)c1	1.2	40	-11	-4	.	.	5205
Cc1c(C(=O)N(Cc2ccccc2)C2CCS(=O)(=O)C2)oc2ccccc12 (centres undefined)	-4.3	0	-21	-8	-1	0	5768
Cn1ccnc1C(=O)Cc1ccc([N+](=O)[O-])cc1	7.4	-8	.	8	14	16	.
O=C1CC2(CCCCC2)Oc2ccc(O)cc21	0.2	-6	-20	0	5	-1	11568
O=C1CNC(=S)N1c1nc2ccccc2s1	2.8	2	-17	2	3	13	3929
O=C(COC(=O)c1cccc(S(=O)(=O)N2CCCCCC2)c1)Nc1ccccc1C(F)(F)F	3.2	.	-47	5	9	-1	4264
Cc1ccc(OC(=O)c2ccc(C)c([N+](=O)[O-])c2)cn1	11	-3	-43	8	6	6	4111
COC(=O)C1=C(C)N(Cc2ccccc2)C(=NCc2ccccc2)N[C@H]1c1cccc(F)c1	.	17	0	.	.	.	3760
COC(C[C@@H]1O[C@@H]1[C@H](O)[C@@H](C)OCc1ccccc1)OC	.	-9	-12	.	.	.	4061

# Other results follow.
compound	RN4220 kill	BJeLR viability	PrP UTR inh	ugtP null kill	Mtb hypoxia rep	Mtb hypoxia rep growth	Bead autofluor
CN(C(=O)c1cccc(OC2CCN(S(=O)(=O)N(C)C)CC2)c1)C1CCOC1 (centres undefined)	3.8	-7	-5	3	6	13	5315
CC(C)Sc1nc2c(cnn2-c2ccccc2)c(=O)[nH]1	3.3	-8	-1	9	9	4	4166
CCN(CC)CCN1C(=O)C(=O)/C(=C(/O)c2ccc(S(=O)(=O)N3CCOCC3)cc2)C1c1ccc(C)cc1 (centres undefined)	0.6	-14	0	0	-3	-5	6429
O=C(c1cccc([N+](=O)[O-])c1)c1ccc2c(c1)C(=O)NC2=O	4.7	2	-10	-3	0	5	3193
Cc1nn(C)cc1/C=N/NC(=O)CSc1ccccn1	.	-5	-19	.	.	.	6225
Cc1ccc(C)c2sc(NC(=O)c3ccc(N4C(=O)CCC4=O)cc3)nc12	0.9	-4	-4	-18	2	-8	4647
COC(CNC(=O)CNC(=S)N(Cc1ccccc1)Cc1cccs1)OC	21	9	-3	9	-5	-2	4156
Cc1ccc(CNC(=O)C2CCCN2S(=O)(=O)c2ccc(Cl)cc2)cc1 (centres undefined)	-0.2	-6	-7	0	-4	-6	.
Cc1cccnc1NC(=S)NCCc1ccccc1	8.4	1	-82	12	20	21	5200
COc1cc(/C=C2/C(=N)N3C(SC)=NSC3=NC2=O)ccc1OC(=O)c1ccco1	2.9	4	-25	12	1	1	5416
COCc1cc(=O)[nH]c(Sc2c(-c3ccccc3)c3ccc(Cl)cc3[nH]c2=O)n1	1.9	-3	-13	-3	-2	11	10169
COC(=O)Cc1ccc(NC(=O)c2ccccc2Cl)cc1	0.4	2	-2	5	19	5	2281

# Continued.
compound	RN4220 kill	BJeLR viability	PrP UTR inh	ugtP null kill	Mtb hypoxia rep	Mtb hypoxia rep growth	Bead autofluor
CCN(CC)S(=O)(=O)c1ccc(OC)c(NC(=O)c2cn(CC)c3nc(C)ccc3c2=O)c1	2.9	-2	-19	-2	8	-3	4258
N=C1S/C(=C\c2cn[nH]c2-c2ccc(F)cc2)C(=O)N1c1ccccc1F	15	-13	-101	-9	11	6	2285
O=C(Nc1ccc2c(c1)oc1ccccc12)c1ccncc1	-8.5	9	-20	-6	6	-1	16791*
Cc1ccc(NC(=O)C2COc3ccccc3O2)cc1C (centres undefined)	2.2	-9	-62	8	20	12	3692
CCN(CC)CCNC(=O)c1ccc(NC(=O)c2c(C)nn(-c3ccc(F)cc3)c2Cl)cc1	0.8	-2	-29	9	2	10	3890
O=C(CSc1nncn1-c1cccnc1)Nc1cccc([N+](=O)[O-])c1	6.3	-3	-7	15	3	0	3569
CCC(CO)Oc1cc(NC(=O)c2cccc(Cl)c2)c2ncn(C(C)C)c2c1 (centres undefined)	2.8	.	-9	13	22	8	3388
COC(=O)c1c(-c2ccccc2)noc1-c1ccccc1	5.8	-7	.	13	18	3	.
CC(C)CC(=O)N1CCN(Cc2ccccc2Cl)CC1	4.1	-8	-34	3	12	3	3660
CC1CC2C(C(O)CC3(C)C(O)CCC23)C2(C)CCC(=O)C=C12 (centres undefined)	3.9	.	-29	11	20	15	3847
CC(=O)N1CCCc2cc(S(=O)(=O)N(C)CCC#N)ccc21	1.3	0	-17	2	.	.	3629
CN(CC(=O)NNC(=O)Cc1ccccc1F)S(=O)(=O)c1ccc(Cl)cc1	-0.9	5	-26	7	4	0	4260

# New compounds follow
compound	RN4220 kill	BJeLR viability	PrP UTR inh	ugtP null kill	Mtb hypoxia rep	Mtb hypoxia rep growth	Bead autofluor
CCOc1ccc(/C(O)=C2/C(=O)C(=O)N(Cc3cccnc3)C2c2ccc(N(C)C)cc2)c(C)c1 (centres undefined)	1.5	-8	-20	4	2	4	6300
CN(C)/C=C/C=C1C(=O)CCCC1=O	3.6	-10	-15	-1	6	8	3659
COc1ccc(C2CC(=O)C=C(c3ccc4c(c3)OCCO4)C2)cc1 (centres undefined)	2.7	.	.	-1	9	10	.
Cc1ccc2oc(=O)c3cnn(CC(=O)N4CCN(c5ccccn5)CC4)c3c2c1	-1.2	3	-6	12	-2	-5	5716
COC(=O)c1cccc(NC(=S)NCCC2=CCCCC2)c1	-16	-1	-5	-16	14	5	2502
COC(=O)[C@@H]1C[C@@]2(O)[C@H](O)[C@H](O)[C@H](O)C[C@H]2N1Cc1ccc(C(F)(F)F)cc1	.	-10	-12	.	.	.	3650
O=C(NCC(c1cccnc1)N1CCOCC1)Oc1ccccc1 (centres undefined)	4.7	7	-22	4	9	9	4531
CCCCNc1ccc(S(N)(=O)=O)cc1[N+](=O)[O-]	3.1	-5	.	11	8	6	.
CCC1CCCCN1C(=O)CSc1nnc(N)s1 (centres undefined)	-0.2	.	-10	2	8	6	3843
COC(=O)C(C(=O)OC)C(C[N+](=O)[O-])c1ccc(OC)cc1 (centres undefined)	4.4	0	-7	-2	8	10	8883
CN(C)S(=O)(=O)c1ccc(C(=O)Nc2cc3c(cc2C(=O)O)OCCCO3)cc1	2.9	-7	-6	13	11	8	2934
COc1cccc(CC2(CO)CCCN(Cc3ccc(-c4ccco4)cc3)C2)c1 (centres undefined)	-2.8	1	-8	1	5	0	5708

# Further results follow:
compound	RN4220 kill	BJeLR viability	PrP UTR inh	ugtP null kill	Mtb hypoxia rep	Mtb hypoxia rep growth	Bead autofluor
CCOc1ccc(C(=O)C(CN2CCOCC2)c2ccccc2)cc1 (centres undefined)	16	0	-20	35	14	22	8721
O=C1/C(=C\c2ccc(Cl)c(Cl)c2)N2CCC1CC2	.	1	-9	.	.	.	3325
COc1ccc(CCN(C)C(=O)Cc2ccc(-c3ccccc3)cc2)cc1OC	11	-8	-7	1	-2	0	3139
COc1ccc2nc(/N=C\N(C)C)sc2c1	.	-5	-47	.	.	.	9309
COCCn1nnnc1C(c1cc(OC)ccc1OC)N1CCc2ccccc2C1 (centres undefined)	0.0	3	-12	4	.	.	2799
Cc1ccc(S(=O)(=O)NCCc2ccncc2)cc1[N+](=O)[O-]	3.5	8	-11	-3	-7	-9	2807
C=C(C)C(=O)Nc1cccc(C2=NOC3(C2)C[C@@H](C(N)=O)N(C(=O)CC(c2ccccc2)c2ccccc2)C3)c1 (some centres undefined)	.	-12	-19	.	.	.	3914
COc1ccc(/C=C2\SC(=S)N(CC(=O)OCC(=O)Nc3ccc(C)cc3Cl)C2=O)cc1	.	6	6	.	.	.	3310
O=C(Nc1nnc(-c2ccccc2)o1)c1cc(-c2cccs2)nc2ccccc12	100*	-6	-20	96*	2	0	5092
